# Assay outcomes: PubChem BioAssay, National Center for Advancing Translational Sciences (NCATS)
# SARS PLpro yeast – blocks SARS-CoV papain-like protease in a yeast assay. 330,000 compounds, 0.19% hits. S. cerevisiae expressing SARS-CoV PLpro, growth rescue; control for the full effect not named in the record. Potency, µM (highest dose often 32.9 µM), without a hit: at the top dose activity, positive = growth rescue; active means well fitted rising curve with a large enough effect; inconclusive means small, poorly fitted or top-dose-only effect; inactive means no such curve, though single readings can be large or run the other way; also: 0% is about no effect; nearly all actives have a fitted effect of over 55% in size; growth read by luminescence after 48 h
# NS1 function inh – influenza NS1 inhibition; S. cerevisiae slowed by influenza A NS1, growth recovery by OD600; AID 2326; Potency, µM (titrated, usually from 46.1 µM), for the others: at the top dose activity, positive = more growth; 270,000 compounds, 0.4% hits; active means well fitted rising curve with a large enough effect; inconclusive means small, poorly fitted or top-dose-only effect; inactive means no such curve, though single readings can be large or run the other way; also: nearly all actives have a fitted effect of over 50% in size
#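 S. cerevisiae expressing influenza A NS1, grown in glucose, washed, then diluted 1:100 into pH 6.0 -URA galactose medium with 23 nl compound. Growth recovery read as OD600; NS1-free strain serves as control.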
# Cruzain Triton – blocks cruzain activity in presence of Triton detergent. purified cruzain, Z-FR-AMC fluorescence, 0.01% Triton. P25779. Potency, µM, without a hit: max response, negative = inhibition, usual class: inhibitors. 200,000 compounds, 0.43% hits;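 also: plate controls were neutral wells for no effect and buffer without enzyme for full effect; nearly all actives have a fitted effect of over 40% in size; top concentration of the series not given in the record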
# Target sequence (P25779 123-467 limits assumed): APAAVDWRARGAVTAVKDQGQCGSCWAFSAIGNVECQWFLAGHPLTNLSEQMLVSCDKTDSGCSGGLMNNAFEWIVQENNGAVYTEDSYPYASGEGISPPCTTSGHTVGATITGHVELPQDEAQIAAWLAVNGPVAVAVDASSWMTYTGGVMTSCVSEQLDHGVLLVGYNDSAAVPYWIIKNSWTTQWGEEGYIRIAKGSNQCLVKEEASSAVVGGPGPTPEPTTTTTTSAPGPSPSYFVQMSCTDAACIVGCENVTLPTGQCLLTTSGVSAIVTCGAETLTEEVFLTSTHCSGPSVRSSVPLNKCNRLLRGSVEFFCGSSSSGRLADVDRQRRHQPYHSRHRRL
#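 In this qHTS format, compounds are incubated with 1.5 nM cruzain for 15 min at room temperature before 2 uM Z-FR-AMC is added. Release of AMC is followed at 360/450 nm, and progress is taken as the 60 s fluorescence difference.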
# MARV entry inh – inhibitors of Marburg virus binding or cell entry. Marburg virus pseudotyped entry inhibition, cell reporter; control for the full effect not named in the record; about a third of the inactives were read at about 46 µM. Potency, µM (titrated, usually from 37.8 µM), for inactives: at the highest dose activity change, negative = inhibition, usual class: inhibitors. 300,000 compounds, 1.8% hits; active = well fitted inhibition curve with a large enough effect; inconclusive = small, poorly fitted or top-dose-only effect, or effect the other way; inactive = flat fitted curve, though single readings scatter; tested in HEK293 cells; about a fifth of its hits are not listed in these tables; also: % is scaled to controls: 0 for no effect and ±100 for the full control effect; luciferase read-out
# 2A StopGo – FMDV 2A StopGo reporter, luciferase signal | AID 1159524 | Potency, µM (top dose mostly 57.9 µM), without a hit: at the top dose signal change, negative = less light | 410,000 compounds, 1.2% hits | human cells with a luciferase reporter of 2A StopGo recoding; control for the full effect not named in the record; active = well fitted falling curve with a large enough effect; inconclusive = small, poorly fitted or top-dose-only effect; inactive = no such curve, though single readings can be large or run the other way; tested in HEK293T cells; also: % is scaled to controls: 0 for no effect and ±100 for the full control effect; nearly all actives have a fitted effect of over 45% in size; luciferase light after 4 h
# RE007 growth inh – less growth of the S. pombe RE007 Vpr strain | S. pombe RE007 Vpr strain, BacTiter-Glo ATP luminescence, 24 h; control for the full effect not named in the record | Potency, µM (doses to about 92.2 µM), without a hit: top-dose activity change, negative = less growth | 360,000 compounds, 0.21% hits; active = well fitted falling curve with a large enough effect; inconclusive = small, poorly fitted or top-dose-only effect; inactive = no such curve, though single readings can be large or run the other way;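 also: % is scaled to controls: 0 for no effect and ±100 for the full control effect; nearly all actives have a fitted effect of over 50% in size; the assay follows cell death caused by Vpr and the record does not say whether a fall means rescue or toxicity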
#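 Fission yeast strain RE007, carrying one chromosomally integrated HIV-1 vpr copy, was seeded at OD 0.01 in PMG+AL medium with 23 nL pinned compound. After 24 h at 30 °C and 99% humidity, viability was read by BacTiter-Glo luminescence.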
# Cruzain inh noDet – blocks cruzain activity in detergent-free assay. P25779. purified cruzain, Z-FR-AMC fluorescence, no detergent. Potency, µM, inactives show max response, negative = inhibition, most hits filed as inhibitors. 200,000 compounds, 2.3% hits. AID 1476;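 also: plate controls were enzyme without inhibitor for no effect and buffer without enzyme for full effect; nearly all actives have a fitted effect of over 40% in size; top concentration of the series not given in the record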
#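 Detergent-free condition (0.00005% Triton X-100) in acetate buffer pH 5.5 with DTT. 1.5 nM enzyme and compound were pre-mixed 15 min, then 2 uM Z-FR-AMC substrate added; reaction progress from fluorescence change between first and third reads (60 s).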
# Lassa entry inh – blocks Lassa virus binding to or entry into cells; Lassa virus pseudotype entry inhibition, cell reporter; control for the full effect not named in the record; Potency, µM (titrated, usually from 37.9 µM), for inactives: at the highest dose activity change, negative = inhibition, usual class: inhibitors; 300,000 compounds, 1.2% hits; active means well fitted inhibition curve with a large enough effect; inconclusive means small, poorly fitted or top-dose-only effect, or effect the other way; inactive means flat fitted curve, though single readings scatter; tested in HEK293 cells; also: % is scaled to controls: 0 for no effect and ±100 for the full control effect; nearly all actives have a fitted effect of over 50% in size; luciferase read-out
# Starred values were filed as active, the others as inactive; ? = inconclusive; / = no result given; & = joins results of further samples; [ ] = dose if it differs, or a comment. Unless noted, calls follow the shape of the dose curve; as a rule, active = well fitted curve in the direction sought with a large enough effect; inconclusive = small, poorly fitted or top-dose-only effect, or another doubt; inactive = no such curve, though single readings can be large; an effect the other way counts as inactive or inconclusive. Potency is read from the fitted curve at half-maximal effect.
SMILES,SARS PLpro yeast,NS1 function inh,Cruzain Triton,MARV entry inh,2A StopGo,RE007 growth inh,Cruzain inh noDet,Lassa entry inh
O=C1CC(c2ccccc2)Cc2[nH]c(=O)c(C(=O)Nc3ccc(F)cc3)cc21 (configuration not stated),/,/,-0.4%,/,-10%,/,10%,5%[46.1 µM]
CSc1ccccc1NC(=O)CNCCCN1CCOCC1,-1%,5%,/,11%[46.1 µM],-13%,7%,/,4%
CCCOc1ccc(C(C)=O)cc1Cc1c(O)nc(SC)[nH]c1=O,2%,4%,/,?,-13%,-11%,/,-8%[46.1 µM]
O=C(CCn1c(=O)c2sccc2n(CC(=O)NCc2ccco2)c1=O)NCc1ccccc1,-1%,-2%,1.9%,?,5%,8%,-5%,28%[14.3 µM]
CCOC(=O)c1[nH]c(Cc2[nH]c(C(=O)OCC)c(C)c2CCC(=O)OC)c(CCC(=O)OC)c1C,3%,2%,-1.9%,0%&0%,2%,-7%,?,?
CCCn1c(=O)c(C(=O)NNC(=O)c2ccccc2Cl)c(O)c2ccccc21,3%,0%,/,?,?,-6%,/,5%
COc1cc(OC)c2ccc(=O)oc2c1C(CCN1CCN(c2ccccc2)CC1)c1ccc(N(C)C)cc1 (configuration not stated),1%,-4%,/,/,-8%,3%,/,/
Cc1ccc(-n2ccnc(SCC(=O)NC3CCCC3)c2=O)cc1Cl,1%,/,/,-7%,-13%,11%,/,3%
CN(C(=O)c1ccccn1)c1nnc(-c2cnccn2)s1,14%,-1%,-0.7%,-24%,18%,6%,8%,?
CC12COC3(C(=O)Nc4ccc(Cl)cn4)CC1CCC32C (configuration not stated),-1%,-13%,1.3%,?,-20%,19%,2%,2%
COc1ccc(N2CCN(C(=O)COc3ncnc4ccccc34)CC2)cc1,-1%,/,/,?,0%,5%,/,-3%[46.1 µM]
COC(=O)c1ccc(SCC(=O)NCc2ccccc2)c([N+](=O)[O-])c1,-1%,3%,/,-4%[46.1 µM],-3%,-8%,/,-23%[46.1 µM]
COc1cccc(-c2nc(CS(=O)CC(=O)NC3CCCCC3)c(C)o2)c1 (configuration not stated),-1%,3%,/,/,39%[activator],7%,/,/
COc1cccc(C(=O)NC2CCSC2=O)c1 (configuration not stated),4%,-10%,0.5%,?,-3%,0%,-1%,1%
CSc1nc(C)cc(OCCO)n1,13%,?,4.6%,-16%[46.1 µM],-3%,9%,-3%,-4%
Cc1cc(C)cc(N(CC(=O)N2CCN(c3ccccc3)CC2)S(=O)(=O)c2c(C)noc2C)c1,1%,-23%,-3.8%,/,-30%,13%,?,/
CN1CCN(NC(=O)c2cccc(C(F)(F)F)c2)CC1,5%,-2%,/,-2%[46.1 µM],-10%,0%,/,0%
Cc1ccc2nc(-c3ccc(NC(=O)C4CCCO4)cc3)[nH]c2c1 (configuration not stated),-14%,-47%,-16%,?,-15%,8%,-8%,8.2µM*
O=S(=O)(c1ccccc1)N1CCN=C1SCc1ccccc1,1%,/,/,?,-8%,2%,/,-23%
CC(=O)Nc1nnc(SCC(=O)N2CCN(Cc3ccccc3)CC2)s1,0%,6%,-2.3%,10%,-22%,-4%,2%,4%
CCCCNC(=O)CCSc1nc2nc(C)cc(C)n2n1,2%,1%,3.1%,-1%,-2%,-15%,0%,1%
O=C(O)c1ccc2c3c(cccc13)C(=O)N(c1cccc3ccccc13)C2=O,1%,1%,/,-2%[46.1 µM],-9%,16%,/,/
CS(=O)(=O)N(CC(=O)N1CCCC1)c1cccc(Cl)c1Cl,8%,-5%,0.7%,10%,/,-4%,5%,-2%
CCOc1cc(CNc2ccc(Br)cc2)cc(Br)c1OCC(=O)NC(C)(C)C,-6%,-18%,-0.6%,-20%,?,2%,-14%,-10%
CN(Cc1nc2ccccc2[nH]1)C(=O)C1CCC(=O)N(CCc2cccc(F)c2)C1 (configuration not stated),-3%,12%,/,0%,-18%,-14%,/,6%

# (continued)
SMILES,SARS PLpro yeast,NS1 function inh,Cruzain Triton,MARV entry inh,2A StopGo,RE007 growth inh,Cruzain inh noDet,Lassa entry inh
CC(C)NC(=O)Cn1ccc2cc(S(=O)(=O)N3CCCCCC3)ccc21,/,/,-4.7%,/,-15%,/,22%,12%[46.1 µM]
COc1ccc(-n2nc(C(=O)NCC(=O)N3CCN(Cc4ccccc4)CC3)c3ccccc3c2=O)c(OC)c1,-2%,-4%,/,-19%[46.1 µM],-3%,5%,/,-6%[46.1 µM]
O=C(/C=C/c1ccco1)c1ccccc1O,0%,4%,/,19%[46.1 µM],30%[activator],-21%,/,7%
Cc1ccc(C2OCC3(CO2)COC(c2ccc(C)cc2)OC3)cc1 (configuration not stated),12%,13%,1.0%,44%,-18%,5%,?,17%
CCOCCCNC(=O)CSc1nnc(-c2ccc(S(=O)(=O)N3CCCC3)cc2)n1C,-5%,12%,/,-13%[46.1 µM],3%,-6%,/,11%
Cc1ccc(SCCNC(=O)/C=C/c2cccc([N+](=O)[O-])c2)cc1,-58%,-27%,-6.7%,2%,-4%,-12%,-2%,2%
Cc1ccc2nc(Cl)c3cc(C(=O)N(CCN(C)C)Cc4ccco4)sc3c2c1,-4%,/,/,?,-18%,-17%,/,-27%
Cc1ccc(C(=O)N/C(=C\c2ccc(-c3ccc([N+](=O)[O-])cc3)o2)C(=O)NC2CCS(=O)(=O)C2)cc1 (configuration not stated),11%,-40%,-13%,0%,-22%,-4%,?,?
CCOc1ccc(CNC(=O)CN2C(=O)C3CCCCN3c3ccc(C(=O)N4CCCC4)cc32)cc1 (configuration not stated),/,/,-0.4%,/,5%,/,6%,6%[46.1 µM]
COCCn1cc(C(=O)N2CCC3(CC2)OCCO3)c2c3ccccc3n(C)c2c1=O,0%,-5%,-4.9%,-4%,2%,2%,1%,-9%
c1ccc(N2CCN(c3ccccc3)C2c2ccncc2)cc1,-15%,-5%,-3.5%,-27%,/,-8%,-1%,1%
Cc1occc1-c1nnc(SCC(=O)Nc2ccccn2)o1,6%,/,/,?,7%,12%,/,?
CCn1c(N2CCN(C(=S)Nc3ccc(OC)cc3)CC2)nc2ccccc21,-2%,-4%,/,-38%,-25%,-11%,/,-11%
O=P(Cc1cccc2ccccc12)(c1ccccc1)c1ccccc1,/,/,/,-2%[46.1 µM],-4%,2%,/,-8%[46.1 µM]
COc1ccc(C(=O)NCC(=O)OCc2ccc(Cl)cc2Cl)cc1OC,-1%,/,/,1%,0%,16%,/,-11%
COc1ccc(-n2c(SCC(=O)N/N=C/c3ccccc3OCC(=O)O)nc3ccccc3c2=O)cc1,1%,?,/,/,-9%,13%,/,/
CC(C)c1ccc(NC(=O)CSc2nc3c(c(=O)[nH]2)CCC3)cc1,1%,9%,2.3%,-3%,/,/,13µM*,/
CCCC[C@H]1COCCS(=O)(=O)N1Cc1cccc(F)c1,-1%,-2%,/,/,-4%,0%,/,/
CCC(Sc1nc(-c2cccc(OC)c2)c(C#N)c(=O)[nH]1)C(=O)Nc1nnc(C(C)C)s1 (configuration not stated),0%,4%,/,?,6%,7%,/,12%[46.1 µM]
Cc1c(NC(=O)c2cccc(F)c2)c(=O)n(-c2ccccc2)n1C,-4%,6%,7.0%,26%,-13%,-2%,3%,23%
COc1cc(NC(=S)NCCN2CCOCC2)cc(OC)c1OC,1%,1%,/,9%,0%,21%,/,13%
CC(=O)NCCC(=O)N(Cc1ccccc1)c1nc2c(C)cccc2s1,-3%,-62%,/,27%[46.1 µM],-18%,-11%,/,0%[46.1 µM]
O=C1CN(C(=O)COc2ccc(F)cc2Br)c2ccccc2N1,1%,3%,/,9%[46.1 µM],29%,-8%,/,-11%[46.1 µM]
O=C(NC(=S)N1CCCC1)c1ccccc1Cl,-4%,8%,/,6%[46.1 µM],0%,5%,/,?
COc1ccc(N2C(=O)C3CCCN3C2c2ccccc2)cc1 (configuration not stated),3%,?,3.5%,/,-16%,7%,3%,/

# Filtered by structure: the compounds so far with a nitro group on carbon.
SMILES,SARS PLpro yeast,NS1 function inh,Cruzain Triton,MARV entry inh,2A StopGo,RE007 growth inh,Cruzain inh noDet,Lassa entry inh
COC(=O)c1ccc(SCC(=O)NCc2ccccc2)c([N+](=O)[O-])c1,-1%,3%,/,-4%[46.1 µM],-3%,-8%,/,-23%[46.1 µM]
Cc1ccc(SCCNC(=O)/C=C/c2cccc([N+](=O)[O-])c2)cc1,-58%,-27%,-6.7%,2%,-4%,-12%,-2%,2%
Cc1ccc(C(=O)N/C(=C\c2ccc(-c3ccc([N+](=O)[O-])cc3)o2)C(=O)NC2CCS(=O)(=O)C2)cc1 (configuration not stated),11%,-40%,-13%,0%,-22%,-4%,?,?

# Next part.
SMILES,SARS PLpro yeast,NS1 function inh,Cruzain Triton,MARV entry inh,2A StopGo,RE007 growth inh,Cruzain inh noDet,Lassa entry inh
Cn1nc(OC(=O)Nc2cccc(Cl)c2)cc1C(F)(F)F,-3%,-70%,1.7%,?,-6%,6%,-5%,-1%
S=C(NCCc1ccccc1)N/N=C/c1cccc(Cl)c1Cl,-6%,4%,-7.7%,?,-3%,/,-8%,5%
CC1(C)N=C(N)N=C(N)N1c1cccc(C#N)c1,/,/,/,?,-13%,0%,/,2.5µM*
Cc1ccc(C)c(NC(=O)CSc2nc3c([nH]c4ccccc43)c(=O)n2-c2ccc(F)cc2)c1,/,/,-2.2%,/,?,/,12%,-18%[46.1 µM]
O=C(Nc1ccc2nc(-c3cccnc3)[nH]c2c1)c1ccco1,10%,-1%,-7.3%,-17%,-14%,-3%,-8%,-5%
NS(=O)(=O)c1cc(C(=O)NC2CCSc3ccccc32)ccc1Cl (configuration not stated),27%,2%,/,-10%[46.1 µM],17%,-6%,/,4%
CCOc1ccccc1NC(=O)N1CCN(Cc2nc3ccc(C)cc3o2)CC1,/,/,0.7%,/,-26%,/,14%,12%[46.1 µM]
[O-]c1c[n+](-c2ccccc2)no1,-6%,2%,/,/,5%,-8%,/,/
